KAT2A inh = GCN5L2 (KAT2A) acetyltransferase inhibition; GCN5L2 HAT assay, ThioGlo1 CoA-SH fluorescence; 390,000 compounds, 0.21% hits; Potency, µM (top dose mostly 58.9 µM), for the others: at the highest dose activity change, negative = inhibition, actives largely listed as inhibitors; AID 504327; Q92830
Target sequence (Q92830 whole entry, looked up): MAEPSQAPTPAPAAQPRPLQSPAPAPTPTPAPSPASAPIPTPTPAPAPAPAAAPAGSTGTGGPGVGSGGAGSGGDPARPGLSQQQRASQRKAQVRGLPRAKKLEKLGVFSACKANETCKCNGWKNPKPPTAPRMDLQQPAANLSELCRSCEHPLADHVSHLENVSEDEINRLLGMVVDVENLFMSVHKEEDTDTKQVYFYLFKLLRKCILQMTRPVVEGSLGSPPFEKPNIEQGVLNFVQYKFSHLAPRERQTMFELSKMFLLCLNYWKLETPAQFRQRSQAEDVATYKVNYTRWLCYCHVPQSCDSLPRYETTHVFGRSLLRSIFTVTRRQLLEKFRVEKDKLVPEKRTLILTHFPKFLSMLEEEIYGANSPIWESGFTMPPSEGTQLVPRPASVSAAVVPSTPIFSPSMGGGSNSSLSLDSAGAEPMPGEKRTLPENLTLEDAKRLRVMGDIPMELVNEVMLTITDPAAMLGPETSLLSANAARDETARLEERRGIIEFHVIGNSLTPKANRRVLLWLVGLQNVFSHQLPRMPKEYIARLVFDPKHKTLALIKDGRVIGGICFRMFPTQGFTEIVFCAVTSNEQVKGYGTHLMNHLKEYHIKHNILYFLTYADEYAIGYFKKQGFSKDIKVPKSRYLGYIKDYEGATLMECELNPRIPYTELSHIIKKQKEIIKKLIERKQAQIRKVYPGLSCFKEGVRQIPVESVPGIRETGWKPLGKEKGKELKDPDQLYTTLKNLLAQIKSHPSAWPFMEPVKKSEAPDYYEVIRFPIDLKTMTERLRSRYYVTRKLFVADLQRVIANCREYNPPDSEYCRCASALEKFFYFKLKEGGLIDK
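Free CoA generated was detected with ThioGlo1 (50uM) fluorescence at Ex340nm/Em540nm, read immediately and after 20 min at room temperature. Enzyme, 20 nM in HEPES pH 7.5 buffer, saw compounds 15 min before adding 75uM H3(1-25) peptide and 70uM acetyl-CoA.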
FEN1 inh = blocks human flap endonuclease 1 | Potency, µM (highest dose often 114 µM), inactives show at the highest dose activity change, negative = inhibition, actives largely listed as inhibitors | 390,000 compounds, 0.35% hits | Recombinant FEN1 flap cleavage, fluorescence, 15 min | P39748 | AID 588795; also: nearly all actives have a fitted effect of over 65% in size
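Quantitative HTS format: each compound was titrated, incubated with 10 nM nuclease for 15 min at room temperature, then challenged with flap substrate at 50 nM final. Signal change over 15 min gave concentration–effect curves.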
Numbers without * were called inactive; & = joins results of further samples. Calls follow the shape of the dose curve; as a rule, active = well fitted curve in the direction sought with a large enough effect; inconclusive = small, poorly fitted or top-dose-only effect, or another doubt; inactive = no such curve, though single readings can be large; an effect the other way counts as inactive or inconclusive. % is scaled to controls: 0 for no effect and ±100 for the full control effect; potency is read from the fitted curve at half-maximal effect.

CC(C)(C)NC(=O)c1ccc2c(c1)N(CC(=O)N1CCN(c3ccccc3F)CC1)C(=O)C(C)(C)O2 was read as KAT2A inh -1.2% and FEN1 inh -9.7%.
Cc1cc(C)c(NC(=O)OCCN2CCOCC2)c(C)c1 was read as KAT2A inh -3.9% and FEN1 inh 17.0%.
CCOC(=O)c1oc2ccc(S(=O)(=O)N3CCC(C)CC3)cc2c1C was read as KAT2A inh -6.0% and FEN1 inh -2.8%.
CC(=O)N1c2ccc(S(=O)(=O)N3CCCCCC3)cc2CC1C(=O)NCc1ccccc1 (configuration not stated) was read as KAT2A inh -5.5% and FEN1 inh -5.4%.
`O=C(Oc1coc(CSc2ncccn2)cc1=O)c1cccc([N+](=O)[O-])c1` gave KAT2A inh -4.2% and FEN1 inh -3.0%.
Screening COc1ccc(NC(=O)CN2CCc3ccccc3C2)c([N+](=O)[O-])c1 returned KAT2A inh -0.2% and FEN1 inh -5.5%.
`COc1ccc(NC(=O)CSC2=NC(=O)CC(C)=N2)cc1` gave KAT2A inh -2.3% and FEN1 inh 1.6%.
CC(C)C(=O)Nc1cccc(NC(=O)c2cccc([N+](=O)[O-])c2)c1 was read as KAT2A inh -4.9% and FEN1 inh 3.1%.
Screening Cc1ccc(C)c(OCCC(=O)NCCc2ccc(S(N)(=O)=O)cc2)c1 returned KAT2A inh 0.0% and FEN1 inh -2.0%.
Screening O=C(Nc1ccc(Cl)cc1)N1CCc2[nH]c3ccccc3c2C1 returned KAT2A inh -3.4% and FEN1 inh -5.6%.

Reprinted from the part before: 3 compounds; new compounds follow.
CC(C)C(=O)Nc1cccc(NC(=O)c2cccc([N+](=O)[O-])c2)c1 was read as KAT2A inh -4.9% and FEN1 inh 3.1%.
Screening Cc1ccc(C)c(OCCC(=O)NCCc2ccc(S(N)(=O)=O)cc2)c1 returned KAT2A inh 0.0% and FEN1 inh -2.0%.
Screening O=C(Nc1ccc(Cl)cc1)N1CCc2[nH]c3ccccc3c2C1 returned KAT2A inh -3.4% and FEN1 inh -5.6%.
`COc1ccccc1C(=O)NCCC(=O)NCc1cccnc1` gave KAT2A inh -8.9% and FEN1 inh -1.6%.
Screening C=C(C)CN=c1scc(C)n1/N=C/c1ccco1 returned KAT2A inh -6.8% and FEN1 inh -0.3%.
`CCOc1ccc(CNS(=O)(=O)c2c(C(=O)N3CCCCCC3)c(C)n(C)c2C)cc1OC` gave KAT2A inh -5.2% and FEN1 inh 0.0%.
Screening Cc1cc(C)cc(-n2nnn(C3C/C(=N/NC(N)=S)C4OCC3O4)c2=S)c1 (configuration not stated) returned KAT2A inh -19.4% and FEN1 inh -17.3%.
Screening Cc1cc(NC(=O)CSc2nc3sc4c(c3c(=O)n2C)CCCC4)no1 returned KAT2A inh -0.7% and FEN1 inh 6.6%.
Screening CC(=O)N=c1sc2c3ccccc3ccc2n1C returned KAT2A inh -0.8% and FEN1 inh -19.8%.
Screening COc1ccccc1N/N=C/c1ccc2c(c1)OCO2 returned KAT2A inh -7.6% and FEN1 inh -0.8%.
For COc1ccc2c(C)c(CCC(=O)NCCc3ccc(Cl)cc3)c(=O)oc2c1 the results were KAT2A inh -2.0% and FEN1 inh -17.9%.
`CCc1ccc2c(c1)cc(C)c1nnc(SCC(=O)Nc3cc(OC)c(OC)cc3C(=O)O)n12` gave KAT2A inh -4.3% and FEN1 inh -7.4%.
CC12CS(=O)(=O)CC1SC(=S)N2c1ccccn1 (configuration not stated) was read as KAT2A inh 1.1% and FEN1 inh 2.7%.
For CCC1Oc2ccccc2C(=O)N(CC(=O)c2ccc3c(c2)OCCO3)C1=O (configuration not stated) the results were KAT2A inh -12.5% and FEN1 inh -19.9%.
Cc1c(NS(=O)(=O)c2ccc(NC3CCCC3)c([N+](=O)[O-])c2)c(=O)n(-c2ccccc2)n1C was read as KAT2A inh 0.3% and FEN1 inh -0.9%.
CC(C)(C)NS(=O)(=O)c1ccc(CCC(=O)N2CCOCC2)cc1 was read as KAT2A inh -1.8% and FEN1 inh -2.5%.
C(=C\c1ccccc1)/CSc1nnc(-c2cnccn2)n1Cc1ccco1 was read as KAT2A inh -10.8% and FEN1 inh -12.8%.
Cc1nc(C)c(-c2ccc(SCc3ccc(Cl)cc3)nn2)s1 was read as KAT2A inh -4.7% and FEN1 inh 0.4%.
`CC(/C=N/NC(=O)Cn1nccc1C)=C\c1ccc(C(C)C)cc1` gave KAT2A inh -6.3% and FEN1 inh -14.8%.
For CCOCCn1c(N2CCN(c3ccc(OC)cc3)CC2)nc2c1c(=O)[nH]c(=O)n2C the results were KAT2A inh -10.6% and FEN1 inh 3.1%.
CC(C)n1cnc2c(NCc3ccccc3)nc(NCCO)nc21 was read as KAT2A inh -22.8%&13.2%.
Screening CC(Sc1nnc2ccccn12)C(=O)Nc1ccc2c(c1)OCO2 (configuration not stated) returned KAT2A inh -4.8% and FEN1 inh 1.1%.
For COc1ccccc1C(=O)COC(=O)CCCN=C1NS(=O)(=O)c2ccccc21 the results were KAT2A inh 0.5% and FEN1 inh -1.6%.
`S=C(Nc1cc(Cl)cc(Cl)c1)N1CCN(c2ccccn2)CC1` gave KAT2A inh 0.7% and FEN1 inh -2.4%.
For CCOc1c(Br)cc(CNc2ccc3c(c2)OCCO3)cc1OC the results were KAT2A inh 0.3% and FEN1 inh -17.4%.
`O=C(/C=C/c1cc([N+](=O)[O-])ccc1OC(F)F)Nc1ccc(OC(F)F)cc1` gave KAT2A inh -2.4% and FEN1 inh -8.2%.
For CC(C(=O)N(C)C1CCS(=O)(=O)C1)N1C(=O)/C(=C/c2cccs2)SC1=S (configuration not stated) the results were KAT2A inh -7.1% and FEN1 inh 18.8%.
`Cc1cccc(NC(=O)CC2CCC2)c1` gave KAT2A inh -0.4% and FEN1 inh 0.5%.
For CCOC(=O)c1cnc2c(c(C)nn2C)c1Oc1ccc(OC)cc1 the results were KAT2A inh -0.3% and FEN1 inh -17.8%.
Screening CC(C)N(CCCNC(=O)c1ccc(CS(=O)(=O)c2c(Cl)cccc2Cl)o1)Cc1ccccc1 returned KAT2A inh -3.9% and FEN1 inh -21.7%.
CCCCC(=O)NC(c1ccc(N(CC)CC)cc1)c1ccc2cccnc2c1O (configuration not stated) was read as KAT2A inh -20.0% and FEN1 inh -11.8%.
O=S(=O)(NCCNc1ncc(C(F)(F)F)cc1Cl)C(F)(F)F was read as KAT2A inh -7.6% and FEN1 inh 3.8%.
`Cc1nnc(NC(=O)CSc2ccccn2)s1` gave KAT2A inh -1.7% and FEN1 inh 1.4%.

Molecules above that contain two or more sulfur atoms:
Screening Cc1cc(C)cc(-n2nnn(C3C/C(=N/NC(N)=S)C4OCC3O4)c2=S)c1 (configuration not stated) returned KAT2A inh -19.4% and FEN1 inh -17.3%.
Screening Cc1cc(NC(=O)CSc2nc3sc4c(c3c(=O)n2C)CCCC4)no1 returned KAT2A inh -0.7% and FEN1 inh 6.6%.
CC12CS(=O)(=O)CC1SC(=S)N2c1ccccn1 (configuration not stated) was read as KAT2A inh 1.1% and FEN1 inh 2.7%.
Cc1nc(C)c(-c2ccc(SCc3ccc(Cl)cc3)nn2)s1 was read as KAT2A inh -4.7% and FEN1 inh 0.4%.
For CC(C(=O)N(C)C1CCS(=O)(=O)C1)N1C(=O)/C(=C/c2cccs2)SC1=S (configuration not stated) the results were KAT2A inh -7.1% and FEN1 inh 18.8%.
`Cc1nnc(NC(=O)CSc2ccccn2)s1` gave KAT2A inh -1.7% and FEN1 inh 1.4%.

New compounds follow
O=C(Nc1sc2c(c1-c1nc3ccccc3[nH]1)CCCC2)C1CCCC1 was read as KAT2A inh -16.6% and FEN1 inh -6.3%.
Screening Cn1c(CN2CCOCC2)nc2cc(NC(=O)c3ccc(F)cc3)ccc21 returned KAT2A inh -14.8% and FEN1 inh -11.6%.
CCC(=O)NC(=S)Nc1cccc(Cl)c1N1CCCC1 was read as KAT2A inh -16.5% and FEN1 inh -0.4%.
CCCN(CC(=O)Nc1ccccc1OC)C(=O)c1cc(-c2cccs2)nn1-c1ccccc1 was read as KAT2A inh -2.3% and FEN1 inh 2.3%.
`N#CCSc1ccccc1NC(=O)COC(=O)CCNC(=O)c1ccc([N+](=O)[O-])cc1` gave KAT2A inh -3.0% and FEN1 inh -3.7%.
`COc1ccc(OC)c(C2=NOC(C(=O)NCc3ccco3)C2)c1` (configuration not stated) gave KAT2A inh -12.8% and FEN1 inh 1.0%.
`O=C(c1ccc2ncsc2c1)N1CCN(c2ccccc2Cl)CC1` gave KAT2A inh 2.9% and FEN1 inh 7.8%.
COc1ccc(CCNC(=O)CO/N=C/c2cc3c(cc2Br)OCO3)cc1OC was read as KAT2A inh -17.4% and FEN1 inh 9.8%.
For Cc1nc(-c2cccs2)sc1C(=O)O the results were KAT2A inh 5.1% and FEN1 inh -3.8%.
For O=C(c1cnc2cc(-c3ccccc3)nn2c1)c1cc([N+](=O)[O-])ccc1O the results were KAT2A inh -8.3% and FEN1 inh -1.7%.
For O=C(Nc1ccnn1C1CCN(Cc2cccc(OCCO)c2)CC1)C1CC1 the results were KAT2A inh -2.9% and FEN1 inh 10.4%.
Screening Cc1nn(C)c(=O)n1-c1ccc(OCc2ccccc2)cc1 returned KAT2A inh 10.1% and FEN1 inh 3.7%.
`COCCN1C(=O)C(=O)/C(=C(/O)c2ccc(S(=O)(=O)N3CCOCC3)cc2)C1c1cccc(OC)c1` (configuration not stated) gave KAT2A inh -1.0% and FEN1 inh -19.3%.
Screening CCOc1ccc(C(=O)NC(=S)NCc2cccnc2)cc1 returned KAT2A inh -1.5% and FEN1 inh 9.9%.
Screening CCc1noc(C)c1C(=O)NNC(=O)c1ccccc1 returned KAT2A inh -3.3% and FEN1 inh 14.2%.
For Cc1onc(-c2ccccc2Cl)c1C(=O)Nc1nc2c(s1)CCCC2 the results were KAT2A inh inconclusive and FEN1 inh 9.9%.
Screening CN(CC(=O)Nc1ccc(Cl)cc1)C(=O)c1ccc(N2CCCC2=O)cc1 returned KAT2A inh -0.1% and FEN1 inh 13.6%.
CC(=O)c1cccc(NC(=O)Cc2noc3ccccc23)c1 was read as KAT2A inh -2.1% and FEN1 inh -5.0%.
CCOC(=O)CSC1=C(C#N)C(c2ccc(OC)cc2)C2=C(CC(C)(C)CC2=O)N1 (configuration not stated) was read as KAT2A inh -7.6% and FEN1 inh -9.8%.
Screening CCOC(=O)CNC(=O)/C=C/c1c(Cl)cccc1Cl returned KAT2A inh -5.7% and FEN1 inh 5.7%.
For NC(=O)c1nsc(C(=O)N(c2ccccc2)C(C(=O)NCC2CCCO2)c2ccc3ncccc3c2)c1N (configuration not stated) the results were KAT2A inh -2.6% and FEN1 inh -1.3%.
Screening O=C(COc1ccc(F)cc1)NCC(c1ccc(Cl)cc1)N1CCCCC1 (configuration not stated) returned KAT2A inh -6.1% and FEN1 inh -5.8%.
O=C(CSc1nncn1-c1ccccc1)Nc1ccccc1 was read as KAT2A inh inconclusive and FEN1 inh 5.7%.
For Cc1cc(C)n(-c2nc3ccccc3[nH]c2=O)n1 the results were KAT2A inh -3.7% and FEN1 inh 11.7%.
For O=C1c2ccccc2S(=O)(=O)c2cc(C(=O)N(c3ccccn3)c3ccccn3)ccc21 the results were KAT2A inh -1.8% and FEN1 inh -0.1%.
`CCOC(=O)N1CCC(NS(=O)(=O)c2cc(Br)cc3c2N(C(=O)CC)CC3)CC1` gave KAT2A inh -0.8% and FEN1 inh -1.5%.
For CCOc1ccc(CCNC(=O)CN2CCN(Cc3ccc(F)cc3)C2=O)cc1OCC the results were KAT2A inh -6.2% and FEN1 inh 10.4%.
`Cc1ccc(-n2c(SCC(=O)OC(C)C)nnc2-c2cnccn2)cc1` gave KAT2A inh 0.7% and FEN1 inh -11.1%.
`Cc1ccccc1CCN(C(=O)c1csnn1)C(C(=O)NC1CCCC1)c1ccncc1` (configuration not stated) gave KAT2A inh -0.1% and FEN1 inh 7.3%.
Screening CCOC(=O)Cn1c(=NC(=O)c2cccs2)sc2cc(C(=O)OC)ccc21 returned KAT2A inh -0.8% and FEN1 inh 6.5%.
`CCn1c(SCC(=O)Nc2ccc3c(c2)OCCO3)nc2c(c1=O)SC(C)C2` (configuration not stated) gave KAT2A inh inconclusive and FEN1 inh -9.8%.
CCN(CCCNC(=O)CN1N=C(c2ccccc2)CCC1=O)c1ccccc1 was read as KAT2A inh 2.0% and FEN1 inh -4.8%.
Screening CN(Cc1cnccn1)C(=O)CC1C(=O)NCCN1Cc1ccc(F)cc1Cl (configuration not stated) returned KAT2A inh -27.4% and FEN1 inh -1.1%.
`CCC(Sc1nncn1C)C(=O)Nc1ccccc1OC` (configuration not stated) gave KAT2A inh 0.9% and FEN1 inh -1.9%.
For CCN(CC)C(=O)[C@H]1C[C@H](CC(=O)NCc2cccc(C(F)(F)F)c2)C(=O)N2CCc3c([nH]c4ccc(Cl)cc34)[C@]12C the results were KAT2A inh -14.6% and FEN1 inh -10.8%.
Screening O=C(O)c1ccccc1N/C=C\[N+](=O)[O-] returned KAT2A inh -11.4% and FEN1 inh 6.6%.
CS(=O)(=O)N1CCCC(C(=O)NCc2cccs2)C1 (configuration not stated) was read as KAT2A inh -1.3% and FEN1 inh -2.8%.
CCOc1ccccc1OCCCC(=O)NCCc1ccc(S(N)(=O)=O)cc1 was read as KAT2A inh -1.7% and FEN1 inh 2.9%.
Screening CC(C)c1ccc(/C=N/NC(=O)C(=O)NCCCN2CCOCC2)cc1 returned KAT2A inh 3.1% and FEN1 inh 17.9%.
Cc1ccc(S(=O)(=O)NCC(=O)NC2CCCC2)cc1 was read as KAT2A inh -1.8% and FEN1 inh 4.7%.

Not all compounds are listed; most or all hits stand in other tables.
